# Bioassay records deposited in PubChem by National Center for Advancing Translational Sciences (NCATS).
# VACV mCherry inh – vaccinia inhibition (mCherry reporter). AID 720579. Potency, µM (top dose mostly 36.5 µM), for the others: at the highest dose activity change, negative = inhibition, actives largely listed as inhibitors. Vaccinia virus mCherry reporter infection, fluorescence; about a quarter of the inactives have no number. 310,000 tested, 0.63% active; active = well fitted inhibition curve with a large enough effect; inconclusive = small, poorly fitted or top-dose-only effect; inactive = no such curve, though single readings can be large or run the other way; tested in A549 cells; note: nearly all actives have a fitted effect of over 35% in size; inactives centre near -10
# Vaccinia Venus – vaccinia inhibition (Venus reporter). Potency, µM (highest dose often 36.5 µM), for inactives: top-dose activity change, negative = inhibition, most hits filed as inhibitors. 330,000 tested, 0.46% active. Vaccinia virus Venus reporter expression, fluorescence; active means well fitted inhibition curve with a large enough effect; inconclusive means small, poorly fitted or top-dose-only effect; inactive means no such curve, though single readings can be large or run the other way; tested in A549 cells; note: nearly all actives have a fitted effect of over 30% in size; inactives centre near -10
# Active calls of the source: *; i = inactive; ? = inconclusive; . = not tested or not shown; & = joins results of further samples; [ ] = dose if it differs, or a comment. % is set by controls: 0 for no effect and ±100 for the full control effect; potency is the fitted concentration of half-maximal effect. Not a hit list; any-hit rate near 0.86%.
SMILES,VACV mCherry inh,Vaccinia Venus
Cc1ccccc1OCc1nnc(SC(C)C(=O)O)n1Cc1ccccc1 (stereo not drawn),i,-3%
CC(C)Sc1cc(N2CCOCC2)nc(-c2ccccc2)n1,?,-28%
CCCOc1ccccc1C(=O)N1CCNC(=O)C1CC(=O)OC(C)C (stereo not drawn),i,1%
CCC(=O)N1CCN(CCN=CC2=C(O)CC(c3cccs3)CC2=O)CC1 (stereo not drawn),-22%,-15%
CCOC(=O)c1c(NC(=O)C(C)Sc2nnc(C)c(=O)[nH]2)sc2c1CCCC2 (stereo not drawn),-5%,-8%
Cc1cccc(C(=O)c2cccc(C)c2)c1,-12%,-7%
CCC(C)c1ccc(NC(=O)CSc2nncn2N)cc1 (stereo not drawn),i[1.46 µM],-4%
O=C(Nc1ccccn1)c1ccc(Br)c(S(=O)(=O)N2CCCC2)c1,-4%,-16%
Cc1ccc(-n2nnc3c(=O)n(CC(=O)c4ccccc4)cnc32)cc1,-3%,0%
Cc1cc(Cl)ccc1OCC(=O)NCC(=O)N/N=C/c1ccco1,i,-2%
CCn1c(O)c(C=Nc2cc(Cl)ccc2Cl)c(=O)n(CC)c1=O,34%[activator],68%[activator]
Cn1c(SCC(=O)NCCNC(=O)CSc2nnc(C(F)(F)F)n2C)nnc1C(F)(F)F,.,-12%
CCN(CC)CCSc1nnc2c3cc(C)ccc3n(Cc3ccccc3)c2n1,i[7.34 µM],-5%[7.34 µM]
COc1ccc(C)cc1N(CC(=O)NC1CCCC1)C(=O)Cn1nnc(-c2ccc(C)o2)n1,-23%,-15%
COc1ccc(CCc2nc(C)ccc2O)cc1,-4%,-6%&-16%
Cc1cccc(N2CCN(C(=O)Cn3c(-c4cccs4)cc4ccccc43)CC2)c1C,-6%,-12%
Cc1ccccc1C(=O)Nc1ccccc1C(=O)N1CCC(C)CC1,-10%,61%[activator]
Cc1cc(=O)oc2cc(OS(C)(=O)=O)ccc12,-12%,-16%
CCC1Oc2ccccc2N(CC(=O)NCCN2C(C)CCCC2C)C1=O (stereo not drawn),-1%,3%
CCN1CCCC1CNC(=O)C(=O)Nc1ccc(OC)cc1 (stereo not drawn),-14%,-12%
COCCNC(=S)N1CCc2cc(OC)c(OC)cc2C1COc1cc(C)cc(C)c1 (stereo not drawn),i,-28%
COc1ccc(-n2nc3c(c2NC(=O)c2ccccc2)CS(=O)(=O)C3)cc1,-16%,-18%
Cc1cc(C)c(C(=O)/C=C/c2cccc3ccccc23)c(=O)[nH]1,5µM*,8.9µM*
CCc1cccc(-n2c(=O)c3cccnc3n2CC(=O)Nc2ccc(OC)c(Cl)c2)c1,-12%[7.34 µM],-10%[7.34 µM]
O=C(COC(=O)c1cncc(Br)c1)Nc1ccc(S(=O)(=O)N2CCOCC2)cc1,5%,-9%

# Filtered by structure: the compounds so far with two or more sulfur atoms
SMILES,VACV mCherry inh,Vaccinia Venus
CCOC(=O)c1c(NC(=O)C(C)Sc2nnc(C)c(=O)[nH]2)sc2c1CCCC2 (stereo not drawn),-5%,-8%
Cn1c(SCC(=O)NCCNC(=O)CSc2nnc(C(F)(F)F)n2C)nnc1C(F)(F)F,.,-12%

# Shown with two lines to a compound: 19 of the compounds above
# Order of values – VACV mCherry inh, Vaccinia Venus
- CCCOc1ccccc1C(=O)N1CCNC(=O)C1CC(=O)OC(C)C (stereo not drawn)
    i, 1%
- CCC(=O)N1CCN(CCN=CC2=C(O)CC(c3cccs3)CC2=O)CC1 (stereo not drawn)
    -22%, -15%
- CCOC(=O)c1c(NC(=O)C(C)Sc2nnc(C)c(=O)[nH]2)sc2c1CCCC2 (stereo not drawn)
    -5%, -8%
- Cc1cccc(C(=O)c2cccc(C)c2)c1
    -12%, -7%
- CCC(C)c1ccc(NC(=O)CSc2nncn2N)cc1 (stereo not drawn)
    i[1.46 µM], -4%
- O=C(Nc1ccccn1)c1ccc(Br)c(S(=O)(=O)N2CCCC2)c1
    -4%, -16%
- Cc1ccc(-n2nnc3c(=O)n(CC(=O)c4ccccc4)cnc32)cc1
    -3%, 0%
- Cc1cc(Cl)ccc1OCC(=O)NCC(=O)N/N=C/c1ccco1
    i, -2%
- CCn1c(O)c(C=Nc2cc(Cl)ccc2Cl)c(=O)n(CC)c1=O
    34%[activator], 68%[activator]
- Cn1c(SCC(=O)NCCNC(=O)CSc2nnc(C(F)(F)F)n2C)nnc1C(F)(F)F
    ., -12%
- CCN(CC)CCSc1nnc2c3cc(C)ccc3n(Cc3ccccc3)c2n1
    i[7.34 µM], -5%[7.34 µM]
- COc1ccc(C)cc1N(CC(=O)NC1CCCC1)C(=O)Cn1nnc(-c2ccc(C)o2)n1
    -23%, -15%
- COc1ccc(CCc2nc(C)ccc2O)cc1
    -4%, -6%&-16%
- Cc1cccc(N2CCN(C(=O)Cn3c(-c4cccs4)cc4ccccc43)CC2)c1C
    -6%, -12%
- Cc1ccccc1C(=O)Nc1ccccc1C(=O)N1CCC(C)CC1
    -10%, 61%[activator]
- Cc1cc(=O)oc2cc(OS(C)(=O)=O)ccc12
    -12%, -16%
- CCC1Oc2ccccc2N(CC(=O)NCCN2C(C)CCCC2C)C1=O (stereo not drawn)
    -1%, 3%
- CCN1CCCC1CNC(=O)C(=O)Nc1ccc(OC)cc1 (stereo not drawn)
    -14%, -12%
- COCCNC(=S)N1CCc2cc(OC)c(OC)cc2C1COc1cc(C)cc(C)c1 (stereo not drawn)
    i, -28%

# (next part)
SMILES,VACV mCherry inh,Vaccinia Venus
COc1ccc(-n2c(CSc3nc(C)cc(C)n3)nnc2SCC(=O)Nc2nccs2)cc1,-9%,-3%
COc1ccc(OC)c(C2CC(=O)c3c([nH]c(C(=O)OC4CCC(C)CC4)c3C)C2)c1 (stereo not drawn),-22%,?
O=C(Nc1ncc2c(n1)CC(c1ccco1)CC2=O)c1ccccc1 (stereo not drawn),-12%,-7%
CCCCCSc1nc2c(cnn2-c2ccc(F)cc2)c(=O)[nH]1,-4%,-15%
COc1cc(/C=N/NC(=O)c2ccc(N(C)S(=O)(=O)c3ccccc3)cc2)cc(OC)c1OC,-12%,-20%
CN1C(=O)c2ccccc2C(O)c2ccccc21 (stereo not drawn),i,-10%
CCN(C(=O)COC(=O)/C(C#N)=C/c1ccc(N(C)C)cc1)C1CCS(=O)(=O)C1 (stereo not drawn),-11%,5%
CCOc1ccc(NC(=O)Cn2c(=O)n(-c3ccccc3)c(=O)c3ccc(C(=O)NCc4ccc5c(c4)OCO5)cc32)cc1,-22%,-23%
COCCn1cc(C(=O)NCc2ccco2)c2c3ccccc3n(C)c2c1=O,-15%,8%
COc1cc(/C=N\N=C2/SC(CC(=O)O)C(=O)N2c2ccc(O)cc2)ccc1O (stereo not drawn),-8%,-16%
COc1cccc(C2C(=O)c3ccccc3C2=O)c1,-13%,-5%
Cc1nn(-c2ccccc2)c(C)c1/C=N/n1c(-c2ccncc2)n[nH]c1=S,-10%,-2%
O=C(CCC(=O)c1cccs1)NCc1ccc(Cl)cc1,-11%,3%
CC(=O)C1=C(O)C(=O)N(c2ccc(O)cc2)C1c1ccc(C)cc1 (stereo not drawn),-3%,-5%
COc1cc(OC)cc(-c2c(-c3cccs3)c3cc(-c4cnc(OC)nc4)ccc3n2C)c1,i,-19%
O=C(/C=C/c1ccc2c(c1)OCO2)c1c(O)n(CCc2ccccc2)c(=O)[nH]c1=O,-6%,2%
Cc1nn(CC(=O)NCc2ccco2)c(C)c1[N+](=O)[O-],-15%,6%
CCCCCCCCCCOC(=O)Cn1c(COc2cccc(OC)c2)[n+](C)c2ccccc21,?,11µM*
COc1ccc(NC(=O)c2ccc(F)cc2)cc1S(=O)(=O)Nc1cc(C)ccc1Br,-11%,?
CCN(CC)C(=O)[C@H]1CC(CC(=O)NC/C=C(\C)CCC=C(C)C)C(=O)N2CCc3c([nH]c4ccccc34)[C@]12C (stereo partly drawn),-14%,-16%
CCc1ccc(Nc2ncc3c(n2)CC(C)(C)CC3=O)cc1,i,-3%
COP(=S)(OC)SCN1C(=O)c2ccccc2C1=O,i,-21%
O=C(c1cccs1)N1CCC(c2ccccc2)C1 (stereo not drawn),-11%,-7%
Cc1ccc(S(=O)(=O)NCC(=O)NCC(=O)OCC(=O)NC(=O)NC(C)(C)C)cc1C,-1%,-2%
COc1ccc(OC)c(NC(=O)Nc2nc(CN)cs2)c1,?,?
SMILES,VACV mCherry inh,Vaccinia Venus
CC1CCCC(C)N1C(=O)c1cc(F)c(F)cc1Cl (stereo not drawn),-12%,-3%
C/C(N)=C(/C#N)C(=O)CSc1nnc(-c2ccccc2)n1C,-19%,-3%
Cc1ccc(Nc2c(-c3ccco3)nc3ccc(C)cn23)cc1,-12%,-13%
Cc1ccc(NS(=O)(=O)c2ccc3c(c2)c(=O)n(C)c(=O)n3C)cc1F,?,?
COCCCn1cc(CN2CC(N3CCN(Cc4ccccc4F)CC3)CS2(=O)=O)nn1 (stereo not drawn),22%,10%
NC(=O)COC(=O)c1ccccc1Nc1ccc(SC(F)F)cc1,i,-3%
Cc1nnc(NC(=O)C2=COCCO2)s1,4%,-4%
Cc1cc[n+](-c2nc3ccccc3nc2[N-]S(=O)(=O)c2ccccc2)cc1,-12%,-8%
O=C(CSc1cccs1)Nc1ccc(Cl)cc1,i,-7%
CN(C)c1ccc(/C=C/c2ccc3c4ccccc4ccc3[n+]2-c2ccccc2)cc1,.,i
CC(=O)Nc1ccc(OCc2cccc([N+](=O)[O-])c2)cc1,i,-14%
COc1ccc(F)cc1S(=O)(=O)N1CCC2(CC1)OCCN2S(=O)(=O)c1ccccc1,i,-18%
CCCCCCN1C[C@@H](O)[C@H](n2cc(C3CC3)nn2)C[C@@H]1c1ccccc1,i,-28%
Cc1cc(S(=O)(=O)Nc2cc3c(cc2N2CCOCC2)n(C)c(=O)n3C)ccc1F,0%,-11%
Cc1cccc(NC(c2ccc(C)s2)c2ccc3ccc(C)nc3c2O)n1 (stereo not drawn),-13%,-10%
Cn1cnc(S(=O)(=O)N2CCC(C(=O)N3CCN(c4ccccc4F)CC3)CC2)c1,-9%,-4%
COc1ccc(C(=O)Nc2ccc(NC(=O)c3cccc(OC)c3)cn2)cc1,-16%,-23%
COc1ccc2c(c1)CCC(=O)[C@H](O)C[C@H](c1ccccc1)OC2=O,-11%,1%
CCC(CC)C(=O)OCC(=O)Nc1cc(OC)c([N+](=O)[O-])cc1C,-7%,-13%
CCCCOc1ccc(CC(=O)NCC(=O)O)cc1,-14%,-12%
CCOC(=O)c1cnc(-c2ccccc2O)nc1Cl,i,-9%
COC(=O)c1cccc(C(=O)N2CCCC(CNC(=O)c3ccccc3Cl)C2)c1 (stereo not drawn),-11%[7.34 µM],-12%[7.34 µM]
O=C(NCCc1csc(-c2ccc(Cl)cc2)n1)c1ccco1,-15%,4%
COc1cc(NC(=O)CSc2nc(-c3ccc(C)cc3)nc3c2Cc2ccccc2O3)cc(OC)c1,-9%,1%
CCCCn1c(SCn2nnc3ccccc3c2=O)nc2cc(S(N)(=O)=O)ccc21,-16%,-23%
SMILES,VACV mCherry inh,Vaccinia Venus
COCCCNC(=S)NNC(=O)c1csc2ccccc12,-10%,-7%
COC(=O)c1c(C)c2c(c(C)c1O)OC(=O)c1c(C)c(Cl)c(O)c(Cl)c1O2,-15%,-10%
Cn1nc(C(=O)NCc2ccc(Cl)cc2)c2c1-c1ccccc1SC2,-9%,-3%
O=C(O)c1n[nH]nc1-c1ccccc1,i,-7%
Cc1ccc(C)c(NC(=O)Cn2nnc(C(=O)NCc3cccs3)c2N)c1,-16%,-13%
COc1ccccc1/C=C/CN1CCSCC1,-12%,0%
COc1ccccc1CNC(=O)c1ccc2c(=O)n(CCCN3CCCC3=O)c(=S)[nH]c2c1,-7%,-7%
Cc1nnsc1C(=O)N1CCN(c2ccc(C#N)cn2)CC1,i[7.34 µM],-6%[7.34 µM]
CNS(=O)(=O)c1ccc(NC(=O)Nc2cccc(F)c2)cc1,-3%,-6%
CCOC(=O)c1ccc(S(=O)(=O)N2CCN(c3nc(-c4cccs4)nc4ccccc34)CC2)cc1,-10%,-11%
CCOC(=O)C1CCCN(C(=S)Nc2cccc(Cl)c2C)C1 (stereo not drawn),-3%,-13%
Cc1cc2c(C)nc(Cc3ccccc3)nc2o1,.,-7%
CNC(=O)c1cc(Nc2nnc(-c3ccc(C)c(S(N)(=O)=O)c3)c3ccccc23)ccc1OC,-21%,-11%
CCN(C(=O)c1cccc(F)c1)c1ccccc1C,6%,3%
COC(=O)N/N=C/c1ccc(OCCSc2ccc(Cl)cc2)c(OC)c1,-8%,-20%
O=C(CSc1nc2cc(Cl)ccc2s1)N1CCN(C(=O)c2ccco2)CC1,-15%,-17%
